Assay outcomes as filed in PubChem.
MLL AF4-AF9 inh = MLL-AF4/AF9 protein interaction inhibition. P42568. AlphaScreen, biotin-AF4 peptide binding to FLAG-AF9. inhibition, % at 10 µM. 0.47% of 350,000 active. AID 651704;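 active = every replicate reaching a set inhibition limit, whatever the replicate mean, cut at about 25% in these data; inconclusive = mean inhibition reaches that limit but some replicates miss it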;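 note: 0% = plate neutral control median and 100% = total signal loss; the record names both 10 and 1 µM as test concentration; the first replicate is given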
Target sequence (P42568 whole entry, looked up): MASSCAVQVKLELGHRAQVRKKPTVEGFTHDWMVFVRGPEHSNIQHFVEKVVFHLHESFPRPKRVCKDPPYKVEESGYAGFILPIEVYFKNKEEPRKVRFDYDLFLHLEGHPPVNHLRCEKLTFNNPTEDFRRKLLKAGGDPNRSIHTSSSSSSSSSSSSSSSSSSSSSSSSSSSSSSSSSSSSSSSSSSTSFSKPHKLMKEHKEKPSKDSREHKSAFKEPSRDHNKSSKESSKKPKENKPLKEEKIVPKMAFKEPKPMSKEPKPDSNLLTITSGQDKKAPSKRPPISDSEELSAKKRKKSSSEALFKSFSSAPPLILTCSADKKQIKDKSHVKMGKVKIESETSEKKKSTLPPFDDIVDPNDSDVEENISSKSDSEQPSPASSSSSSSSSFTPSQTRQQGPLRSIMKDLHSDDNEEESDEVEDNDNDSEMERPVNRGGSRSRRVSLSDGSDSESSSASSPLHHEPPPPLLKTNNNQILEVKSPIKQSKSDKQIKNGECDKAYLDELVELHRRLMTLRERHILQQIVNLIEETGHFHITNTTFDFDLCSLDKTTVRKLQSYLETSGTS
Ecoli rRNA inh = selective bacterial rRNA inhibition in E. coli; 1.6% of 350,000 active; GFP signal change (wild-type ribosome), % (no concentration beside the values); E. coli WT GFP vs humanized-ribosome RFP mutants, fluorescence, 24 h; active compounds read low; DMSO median 0, no signal -100;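 active = significant combined selectivity score with lowered wild-type GFP, culture density cut under 30%, mutant RFP and density less affected; inactive = any of these conditions unmet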; note: one replicate is shown; some compounds called inactive have numbers as strong as hits
Ecoli growth = E. coli growth inhibition | Escherichia coli growth, OD600, 23 h; active compounds read low | OD600 absorbance (test concentration not listed) | 0.21% of 330,000 active | AID 1053175;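 active = OD600 absorbance below the run mean of sample wells minus 3.6 SD, in any replicate, cut at about 0.56 in these data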;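 note: stock transfer was 300 nL into about 60 µL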
Vif A3G = inhibitors of Vif binding to APOBEC3G peptide, primary screen, biochemical, TR-FRET, GST-Vif 1-94, biotin-A3G peptide, dose response retest (AID 1117319). TR-FRET GST-Vif / biotin-A3G peptide binding; higher % means a stronger effect; test concentration not given here; strong numbers were not always called active. inhibition, %, or IC50 in µM where a hit was titrated. 0.57% of 260,000 active;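 active = above the screen mean plus three standard deviations and confirmed in dose response; inconclusive = results disagree or hit not tested in dose response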;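 note: Vif residues 1-94 fused to GST binding biotinylated APOBEC3G peptide 110-148; 0% = full assay without inhibitor and 100% = GST in place of GST-Vif; retest series ran down from 100 µM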
FGF22 binding = shifts melting point of recombinant human FGF22 | Q9HCT0 | recombinant FGF22 thermal shift, SYPRO orange fluorescence; percent of sucrose octasulfate shift, DMSO zero | calls only at 9.99 µM | 1.5% of 340,000 active;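 active = melting point raised past a set limit in the mean and every replicate; inconclusive = no clear call; three in four hits are not shown here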
Target sequence (Q9HCT0 whole entry, looked up): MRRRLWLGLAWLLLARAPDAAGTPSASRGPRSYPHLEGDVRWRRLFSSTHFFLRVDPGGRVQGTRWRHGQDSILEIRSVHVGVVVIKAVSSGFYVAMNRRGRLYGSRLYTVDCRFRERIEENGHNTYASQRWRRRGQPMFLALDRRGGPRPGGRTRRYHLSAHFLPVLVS
HNF4A DNA FP = change in binding of human HNF4 alpha to DNA; HNF4a-FITC DNA binding, fluorescence polarization, 1 h; P41235; activity change, % at 10 µM; 0.3% of 360,000 active; in the data active = activity change above about 30%, passing the limit was not always enough;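 note: controls were the assay level and a saturating level of protein; the project sought stronger binding though the title names inhibitors; some compounds called inactive have numbers as strong as hits; positive values seem to mean higher polarization but the record does not say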
ALR inh = inhibitors of human sulfhydryl oxidase ALR. purified ALR, DTT oxidation, H2O2 HRP-luminol luminescence. inhibition, % (test concentration not listed). 3.8% of 290,000 active;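 active = mean and each replicate at 75% or more; inconclusive = only one of the two met; inactive = neither met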;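 note: stock transfer was 7.5 nL into about 7.5 µL; 0% = neutral wells and 100% = wells with inactivated enzyme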
Target sequence (P55789 whole entry, looked up): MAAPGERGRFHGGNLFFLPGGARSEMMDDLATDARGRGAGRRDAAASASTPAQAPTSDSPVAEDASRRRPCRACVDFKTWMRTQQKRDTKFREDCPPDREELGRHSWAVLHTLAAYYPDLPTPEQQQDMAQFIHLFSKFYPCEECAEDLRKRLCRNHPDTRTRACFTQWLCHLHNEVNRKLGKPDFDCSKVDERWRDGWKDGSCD
Ecoli rRNA inh OD600 = further read-out of Ecoli rRNA inh, marked with its call; OD600 change, %; measured here: OD600 growth;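 optical density of the mix in the first replicate; 0 = DMSO median and -100 = no signal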
Ecoli rRNA inh RFP = recorded beside Ecoli rRNA inh, whose call it bears; RFP signal change, %; measured here: RFP humanized mutant strains;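 first replicate; 0 = DMSO median and -100 = no signal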
Starred values were filed as active, the others as inactive; i = inactive; u = inconclusive; x = no result given.

Codes: A = MLL AF4-AF9 inh; B = Ecoli rRNA inh; C = Ecoli rRNA inh OD600; D = Ecoli rRNA inh RFP; E = Ecoli growth; F = Vif A3G; G = FGF22 binding; H = HNF4A DNA FP; I = ALR inh
O=C(CSc1nnnn1C1CCCC1)Nc1ccc2c(c1)OCCO2
  A: -0.8	B: -0.4	C: -18.5	D: 4.4	E: 0.714	F: 1.0%	G: i	H: 3.5	I: -4.7
C=CCNC(=O)COC(=O)CNC(=O)c1cc(Cl)cc([N+](=O)[O-])c1
  A: -1.8	B: 10.5	C: 3.1	D: -0.8	E: 0.675	F: x	G: i	H: 0.9	I: -13.3
COC(=O)C1=C(C)N(Cc2ccccc2)C(=O)N[C@H]1c1ccco1
  A: 1.6	B: 8.1	C: 3.8	D: 15.4	E: x	F: x	G: i	H: 0.1	I: -10.1
C[C@@H]1CN([C@H](C)CO)C(=O)c2cccc(NC(=O)NC3CCCCC3)c2O[C@H]1CN(C)Cc1ccc(C(=O)O)cc1
  A: -12.9	B: 6.9	C: 10.0	D: -1.9	E: x	F: x	G: i	H: x	I: x
Cc1nc2ccccc2c(=O)n1/N=C/c1c(O)ccc2oc3c(c12)CCCC3
  A: x	B: x	C: x	D: x	E: x	F: 18.4%	G: x	H: 0.1	I: -19.5
Cc1ccc(-c2nc3ccc(Br)cn3c2Cc2ccccc2)cc1
  A: 2.0	B: -1.0	C: -18.6	D: 2.6	E: x	F: x	G: i	H: -3.7	I: x
O=C(C[C@H]1CC[C@@H]2[C@H](COC[C@H](O)CN2C(=O)C2CC2)O1)NCc1ccncc1
  A: -3.5	B: -1.8	C: 0.7	D: -2.0	E: x	F: x	G: i	H: x	I: x
Cc1ccccc1-c1n[nH]c(=S)n1Cc1ccccc1
  A: -2.3	B: -13.2	C: -33.4	D: -4.5	E: 0.718	F: 1.6%	G: x	H: -2.1	I: u
Cc1ccccc1OCC(=O)N1CCCc2ccccc21
  A: -3.7	B: -20.1	C: -13.7	D: 1.1	E: 0.682	F: 1.6%	G: i	H: 2.9	I: -20.6
COC(=O)c1ccccc1NC(=O)CSc1nc2ccsc2c(=O)n1Cc1ccc(C(=O)O)cc1
  A: -0.3	B: 9.3	C: -0.1	D: 0.0	E: x	F: -6.9%	G: i	H: -1.3	I: x
N#Cc1ccccc1NC(=O)CNc1ccccc1N1CCCCC1
  A: x	B: x	C: x	D: x	E: 0.661	F: u	G: x	H: -0.3	I: x
COc1ccccc1NS(=O)(=O)c1ccc2oc(SCC(=O)N3CCNC3=O)nc2c1
  A: -1.5	B: -9.7	C: -15.0	D: 2.8	E: 0.694	F: -9.9%	G: x	H: -0.7	I: 0.1
CCCCCOC(=O)C1C2C=CC3(CN(c4ccccc4C)C(=O)C13)O2 (centres undefined)
  A: x	B: x	C: x	D: x	E: 0.746	F: -3.9%	G: x	H: -3.6	I: -3.7
CCC(=O)Nc1ccc2c(c1)ncn2CCc1ccccc1
  A: 2.1	B: 2.3	C: 7.3	D: 1.1	E: 0.68	F: 2.9%	G: i	H: -0.5	I: -5.7
CCC(=O)N1[C@H](CO)[C@@H](c2ccc(-c3ccccc3C)cc2)C12CN(C(C)=O)C2
  A: 2.3	B: 0.5	C: -3.3	D: 0.0	E: x	F: x	G: i	H: x	I: x

Compound profiles, from the list above. Screens in order: MLL AF4-AF9 inh	Ecoli rRNA inh	Ecoli rRNA inh OD600	Ecoli rRNA inh RFP	Ecoli growth	Vif A3G	FGF22 binding	HNF4A DNA FP	ALR inh
CCCCCOC(=O)C1C2C=CC3(CN(c4ccccc4C)C(=O)C13)O2 (centres undefined) as listed: x	x	x	x	0.746	-3.9%	x	-3.6	-3.7
CCC(=O)Nc1ccc2c(c1)ncn2CCc1ccccc1 as listed: 2.1	2.3	7.3	1.1	0.68	2.9%	i	-0.5	-5.7

(further entries)
Codes: A = MLL AF4-AF9 inh; B = Ecoli rRNA inh; C = Ecoli rRNA inh OD600; D = Ecoli rRNA inh RFP; E = Ecoli growth; F = Vif A3G; G = FGF22 binding; H = HNF4A DNA FP; I = ALR inh
CO[C@H](CN(C)S(=O)(=O)c1ccc(Cl)cc1)[C@H](C)CN(Cc1ccccc1Cl)[C@H](C)CO
  A: -13.6	B: -12.7	C: -54.8	D: 0.4	E: x	F: x	G: i	H: x	I: x
CCSc1nnc2c(n1)[nH]c1c(C)cccc12
  A: x	B: x	C: x	D: x	E: 0.647	F: -1.8%	G: x	H: -2.1	I: 1.0
CC1(NC(=S)Nc2ccc3ccccc3c2)CCS(=O)(=O)C1 (centres undefined)
  A: 5.7	B: 10.9	C: 2.9	D: 2.3	E: 0.679	F: -18.3%	G: i	H: 0.5	I: -2.8
COCCN(C(=O)CSc1nnc(C)n1-c1ccccc1)c1c(N)n(Cc2ccccc2)c(=O)[nH]c1=O
  A: x	B: x	C: x	D: x	E: 0.703	F: 0.9%	G: x	H: 1.8	I: -5.5
O=c1c2cc(NC(=S)NCCN3CCCCCC3)ccc2nc2n1CCCCC2
  A: 3.8	B: 1.0	C: 15.9	D: 7.4	E: 0.683	F: -135.8%	G: i	H: 3.6	I: -1.0
C=CCOc1ccc(CNC(C)(C)C)cc1OC
  A: x	B: x	C: x	D: x	E: 0.696	F: -1.6%	G: x	H: 50.9*	I: -20.4
Cc1ccccc1S(=O)(=O)Nc1ncc(C(F)(F)F)cc1Cl
  A: -1.0	B: -32.6	C: -38.8	D: -8.7	E: 0.703	F: -20.1%	G: i	H: -2.0	I: -1.9
CCOc1ccc(NC(=O)c2ccc(F)c(S(=O)(=O)N3CCN(c4ccccn4)CC3)c2)cc1
  A: x	B: x	C: x	D: x	E: 0.694	F: 6.8%	G: x	H: -2.8	I: x
Cc1cc(N2C(=O)C(O)=C(C(=O)c3cccs3)C2c2cccc(Br)c2)no1 (centres undefined)
  A: -4.2	B: 14.1	C: 10.2	D: 0.6	E: 0.684	F: u	G: i	H: -0.4	I: 15.8
CCOC(=O)[C@@H]1CSCCS(=O)(=O)N1C(=O)[C@H](CC(C)C)NC(=O)OC(C)(C)C
  A: -2.0	B: -13.2	C: -12.4	D: 2.6	E: x	F: x	G: i	H: x	I: x
O=C(C[C@@H]1C[C@@H]2c3cc(NC(=O)c4ccc5c(c4)OCO5)ccc3O[C@@H]2[C@H](CO)O1)NCC1CC1
  A: -1.1	B: -0.5	C: -2.4	D: 1.8	E: x	F: x	G: i	H: x	I: x
Cn1c(CC(=O)Nc2ccc(Cl)cc2)nnc1SCC(=O)N1CCOCC1
  A: -2.0	B: 5.2	C: 8.8	D: 2.8	E: 0.723	F: x	G: i	H: -0.6	I: -3.8
Cc1cc(=O)[nH]c(N/N=C/c2ccc(Cl)cc2Cl)n1
  A: -0.3	B: 5.6	C: -7.0	D: -4.2	E: x	F: -1.7%	G: i	H: 0.7	I: -6.4
C[C@H](O)C#Cc1ccc2c(c1)O[C@H](CN(C)C(=O)c1ccncc1)[C@@H](C)CN([C@@H](C)CO)S2(=O)=O
  A: -1.7	B: 2.3	C: -3.0	D: -0.7	E: x	F: x	G: i	H: x	I: x
COc1cccc(O)c1CN1CCC(C(=O)Nc2ccc(-c3cccc(C)c3)cc2)CC1
  A: 5.7	B: -23.8	C: -64.6	D: 15.6	E: 0.631	F: x	G: i	H: 2.5	I: 2.3
CN(c1ccc(F)cc1)S(=O)(=O)c1ccc(Cl)c(C(=O)OCC(=O)NC2CC2)c1
  A: 6.3	B: -3.2	C: -9.1	D: 0.2	E: 0.666	F: x	G: i	H: 2.9	I: 1.6
C[C@H]1CN([C@@H](C)CO)C(=O)c2cc(C#CC(C)(C)O)cnc2O[C@@H]1CN(C)C(=O)C1CC1
  A: -3.3	B: 6.5	C: -1.8	D: -1.7	E: x	F: x	G: i	H: x	I: x
C[C@@H]1CCCCO[C@H](CN(C)C(=O)Nc2ccc3c(c2)OCO3)[C@H](C)CN([C@@H](C)CO)C(=O)c2cc(NS(C)(=O)=O)ccc2O1
  A: 0.0	B: -4.2	C: -6.5	D: 0.8	E: x	F: x	G: i	H: x	I: x
CCOc1ccccc1N1CCN(C(=O)c2cc[n+]([O-])cc2)CC1
  A: x	B: x	C: x	D: x	E: 0.705	F: -1.9%	G: x	H: -0.7	I: 9.2
COC(=O)c1[nH]c2cccc(OC)c2c1NC(=O)CCN1CCC(C)CC1
  A: x	B: x	C: x	D: x	E: 0.727	F: 21.6%	G: x	H: 3.3	I: -1.4
Cc1c(C)c2ccc(OC(C)C(=O)NCCCN3CCOCC3)c(C)c2oc1=O (centres undefined)
  A: 1.1	B: 10.2	C: 8.2	D: 2.1	E: 0.707	F: x	G: i	H: -1.6	I: -0.2
COc1ccc(OC)c(-c2nn(-c3ccccc3)cc2C(=O)NCC(c2ccco2)N2CCCC2)c1 (centres undefined)
  A: 9.6	B: -3.0	C: -2.2	D: 5.2	E: 0.68	F: -2.4%	G: i	H: 1.9	I: -3.1
CC1(C)CC(=O)C(C(=S)Nc2ccccc2)=C(NCCN2CCOCC2)C1
  A: x	B: x	C: x	D: x	E: 0.702	F: -5.8%	G: x	H: -1.5	I: -5.6
Cc1ccc(CNC(=O)COC(=O)[C@@H]2CC(O)CN2S(=O)(=O)c2ccc3c(c2)OCCO3)cc1 (some centres undefined)
  A: 2.4	B: -14.3	C: -10.3	D: -2.7	E: 0.717	F: 10.5%	G: i	H: -1.0	I: -18.6
O=C(CSc1nc2ccccc2c(=O)n1-c1ccccc1)N1CCC1
  A: 3.8	B: -15.4	C: -15.2	D: -7.6	E: 0.667	F: 3.0%	G: i	H: -1.1	I: x
Cc1cccc(-c2cc(N)n(-c3ccccc3)n2)c1
  A: 4.5	B: 1.8	C: -1.3	D: 1.8	E: 0.713	F: 2.3%	G: i	H: -2.0	I: x
CCOC(=O)N1CCN(Cc2ccc(OCC(O)CN3CCCCC3)cc2)CC1 (centres undefined)
  A: 3.1	B: 8.3	C: 13.8	D: 2.2	E: 0.661	F: x	G: i	H: -0.8	I: x
COc1cccc(/C=C/C(=O)NNC(=O)CCN2CCN(Cc3ccccc3)CC2)c1
  A: -5.2	B: -0.2	C: 2.2	D: -1.5	E: 0.698	F: u	G: i	H: -2.0	I: -9.4
Cc1ccccc1S(=O)(=O)c1c(C)cc(C)n(C(C)C)c1=O
  A: x	B: x	C: x	D: x	E: 0.744	F: -3.8%	G: x	H: -3.0	I: -7.3
COc1ccc(NC(=O)c2nnn(Cc3ccc(SC)cc3)c2N)c(OC)c1
  A: 1.5	B: 3.3	C: 8.1	D: -0.4	E: 0.742	F: 0.9%	G: i	H: 5.3	I: -7.1
CCCCc1nnc(NC(=O)CS(=O)(=O)Cc2ccccc2)s1
  A: x	B: x	C: x	D: x	E: 0.659	F: 0.2%	G: x	H: -5.5	I: -5.6
Cc1c(C(=O)Nc2ccccn2)oc2ccccc12
  A: -12.8	B: 8.1	C: 21.5	D: -3.2	E: 0.704	F: 4.5%	G: i	H: 0.5	I: 16.5
OCc1nc2ccccc2n1CCc1ccccc1
  A: -3.1	B: -10.3	C: -10.9	D: 0.5	E: 0.648	F: x	G: i	H: -6.3	I: -2.3
CC(C)(C)c1ccc(/C=C/C(=O)N2CCCCC2)cc1
  A: 4.7	B: x	C: x	D: x	E: 0.655	F: x	G: i	H: 0.6	I: x
Cc1cc(=O)[nH]c(SCc2ccc(Cl)cc2)n1
  A: 1.7	B: -0.9	C: 6.4	D: 2.5	E: 0.66	F: x	G: i	H: -2.3	I: -9.6
CN(Cc1ccccc1)C(=O)COc1cccnc1[N+](=O)[O-]
  A: 1.5	B: 5.9	C: 5.4	D: -0.3	E: 0.681	F: -3.3%	G: i	H: 1.8	I: -6.6
Nc1ccc(C(=O)Nc2ccc3c(O)cc(S(=O)(=O)O)cc3c2)cc1
  A: 2.5	B: 4.9	C: 11.8	D: 0.1	E: 0.686	F: 29.1%	G: i	H: -8.0	I: x

Some of the compounds tested, so the mix of outcomes need not match the whole.
